Assay outcomes deposited in PubChem BioAssay by Broad Institute.
Env fusion inh: inhibitors of HIV-1 Env-driven cell-cell fusion, primary screen, HeLa-JRFL effector, CEM21 target cells, luciferase; inhibition, % at 12.3 µM; 360,000 tested, 1.1% active; AID 651610, 2012;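 active means mean replicate inhibition score of at least 50 and every replicate individually at or above 50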;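 further: 0% = plate neutral controls and 100% = maraviroc near 300 nM; one replicate is shown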
UUG fidelity: modulators of yeast start codon fidelity, primary screen, whole organism, S. cerevisiae, single point, plate reader. 350,000 tested, 0.13% active. S. cerevisiae UUG-firefly luciferase reporter, luminescence/redox ratio. activity score, % at 18.7 µM;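 active means replicate mean at a twofold rise or more, about +100% in these data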;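 further: firefly luciferase made from a UUG start codon reports start codon fidelity; reporter light over untreated wells divided by growth signal over untreated wells; some hits fall short of that in this replicate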
* marks the source's active call; other numbers are inactive results; [ ] = dose if it differs, or a comment. This is a subset; the hit share may differ from the screen's.

SMILES	Env fusion inh	UUG fidelity
C[C@@H]1CN([C@H](C)CO)S(=O)(=O)c2ccc(C#C[C@@H](C)O)cc2O[C@@H]1CN(C)C(=O)c1ccccc1	5[16.7 µM]	3
C[C@@H]1CN([C@H](C)CO)C(=O)c2cccc(NC(=O)c3nc4ccccc4s3)c2O[C@H]1CN(C)S(=O)(=O)c1ccc(Cl)cc1	-58[16.7 µM]	-13
C[C@@H]1CCCCO[C@@H](CN(C)Cc2ccccc2)[C@H](C)CN([C@H](C)CO)C(=O)c2cc(NS(C)(=O)=O)ccc2O1	-6[16.7 µM]	3
C/C=C/c1cnc2c(c1)C(=O)N([C@@H](C)CO)C[C@@H](C)[C@@H](CN(C)Cc1ccccc1)O2	1[16.7 µM]	-5
CC(C)NC(=O)Nc1cccc2c1O[C@H](CN(C)C(=O)Nc1ccc(C(F)(F)F)cc1)[C@@H](C)CN([C@@H](C)CO)C2=O	-16[16.7 µM]	27
Cc1noc(C)c1NC(=O)N(C)C[C@H]1Oc2ccc(NC(=O)CCN3CCOCC3)cc2CC(=O)N([C@H](C)CO)C[C@H]1C	-14[16.7 µM]	8
CC(C)C#Cc1cnc2c(c1)C(=O)N([C@@H](C)CO)C[C@H](C)[C@@H](CN(C)C(=O)c1ccccc1F)O2	-38[16.7 µM]	14
C[C@@H]1CN([C@@H](C)CO)C(=O)c2cc(NS(=O)(=O)c3cccs3)ccc2O[C@@H](C)CCCCO[C@@H]1CN(C)C(=O)CCCN(C)C	-1[16.7 µM]	14
C[C@H](CO)N1C[C@H](C)[C@@H](CN(C)C(=O)C2CC2)Oc2cc(Br)ccc2S1(=O)=O	0[16.7 µM]	9
CN(C)CC(=O)Nc1ccc2c(c1)[C@@H]1C[C@@H](CC(=O)NCc3ccc4c(c3)OCO4)O[C@H](CO)[C@@H]1O2	4[16.7 µM]	-5
C[C@@H]1CN([C@@H](C)CO)C(=O)c2cccc(NC(=O)NC3CCCCC3)c2O[C@H]1CN(C)Cc1ccc2c(c1)OCO2	-12[16.7 µM]	9
COc1ccc(NC(=O)N(C)C[C@H]2Oc3c(NC(=O)c4ccncc4)cccc3C(=O)N([C@@H](C)CO)C[C@H]2C)cc1	-23[16.7 µM]	-4
C/C=C/c1ccc2c(c1)O[C@@H](CN(C)Cc1ccc(F)cc1)[C@@H](C)CN([C@@H](C)CO)S2(=O)=O	48[16.7 µM]	-3
Cc1cc(C(=O)Nc2cccc3c2O[C@@H](CN(C)CC2CC2)[C@@H](C)CN([C@H](C)CO)C3=O)n(C)n1	27[16.7 µM]	-24
C[C@H](CO)N1C[C@H](C)[C@H](CN(C)Cc2ccc(C(F)(F)F)cc2)Oc2ccc(NC(=O)C3CC3)cc2C1=O	-3[16.7 µM]	-1

The closing 7 records of the part above are carried over, then new ones follow:
SMILES	Env fusion inh	UUG fidelity
C[C@H](CO)N1C[C@H](C)[C@@H](CN(C)C(=O)C2CC2)Oc2cc(Br)ccc2S1(=O)=O	0[16.7 µM]	9
CN(C)CC(=O)Nc1ccc2c(c1)[C@@H]1C[C@@H](CC(=O)NCc3ccc4c(c3)OCO4)O[C@H](CO)[C@@H]1O2	4[16.7 µM]	-5
C[C@@H]1CN([C@@H](C)CO)C(=O)c2cccc(NC(=O)NC3CCCCC3)c2O[C@H]1CN(C)Cc1ccc2c(c1)OCO2	-12[16.7 µM]	9
COc1ccc(NC(=O)N(C)C[C@H]2Oc3c(NC(=O)c4ccncc4)cccc3C(=O)N([C@@H](C)CO)C[C@H]2C)cc1	-23[16.7 µM]	-4
C/C=C/c1ccc2c(c1)O[C@@H](CN(C)Cc1ccc(F)cc1)[C@@H](C)CN([C@@H](C)CO)S2(=O)=O	48[16.7 µM]	-3
Cc1cc(C(=O)Nc2cccc3c2O[C@@H](CN(C)CC2CC2)[C@@H](C)CN([C@H](C)CO)C3=O)n(C)n1	27[16.7 µM]	-24
C[C@H](CO)N1C[C@H](C)[C@H](CN(C)Cc2ccc(C(F)(F)F)cc2)Oc2ccc(NC(=O)C3CC3)cc2C1=O	-3[16.7 µM]	-1
C[C@H](CO)N1C[C@H](C)[C@@H](CN(C)Cc2ccncc2)Oc2ncc(C#Cc3ccccn3)cc2C1=O	-16[16.7 µM]	-6
O=S(=O)(N[C@@H]1CC[C@H](CCn2cc(-c3cccc(F)c3)nn2)O[C@H]1CO)c1ccc(Cl)cc1	23[16.7 µM]	-4
O=C(Cc1cccnc1)N[C@@H]1CC[C@@H](CCn2cc(Cc3ccccc3)nn2)O[C@H]1CO	7[16.7 µM]	-14
C[C@H](CO)N1C[C@H](C)[C@H](CN(C)C(=O)Nc2ccc(C(F)(F)F)cc2)Oc2ccc(NS(=O)(=O)c3ccc(F)cc3)cc2C1=O	-1[16.7 µM]	-3
C[C@H]1CN([C@@H](C)CO)C(=O)Cc2cc(NC(=O)CCN3CCOCC3)ccc2O[C@H]1CN(C)S(=O)(=O)c1cn(C)cn1	-25[16.7 µM]	0
C[C@H](CO)N1C[C@H](C)[C@@H](CN(C)Cc2ccccc2)Oc2ncc(/C=C/c3ccccc3)cc2C1=O	5[16.7 µM]	-5
CCC(=O)Nc1ccc2c(c1)C(=O)N(C)[C@@H]1CC[C@@H](CC(=O)NCC3CCCCC3)O[C@@H]1CO2	-6[16.7 µM]	10
C[C@@H]1CCCCO[C@@H](CN(C)S(=O)(=O)c2cn(C)cn2)[C@H](C)CN([C@@H](C)CO)C(=O)c2cc(NC(=O)CCCN(C)C)ccc2O1	-10[16.7 µM]	-4
C[C@H]1CN([C@@H](C)CO)C(=O)Cc2cc(N(C)C)ccc2O[C@H]1CN(C)C(=O)Nc1ccc(C(F)(F)F)cc1	-9[16.7 µM]	15
C[C@@H]1CN([C@@H](C)CO)S(=O)(=O)c2ccc(-c3cncnc3)cc2O[C@H]1CN(C)Cc1cccnc1	-5[16.7 µM]	-12
C[C@H](CO)N1C[C@H](C)[C@H](CN(C)Cc2cccnc2)Oc2ncc(C#Cc3ccccn3)cc2C1=O	4[16.7 µM]	2
CS(=O)(=O)N1[C@H](CO)[C@@H](c2ccc(C#CC3CCCC3)cc2)[C@@H]1C#N	7[16.7 µM]	-6
Cc1ccc(S(=O)(=O)N(C)C[C@H]2OCCCC[C@H](C)Oc3ccc(NC(=O)Nc4ccc5c(c4)OCO5)cc3C(=O)N([C@H](C)CO)C[C@H]2C)cc1	-18[16.7 µM]	-7
C[C@@H]1CCCCO[C@H](CN(C)C(=O)Nc2ccc(C(F)(F)F)cc2)[C@H](C)CN([C@H](C)CO)C(=O)c2cc(NC(=O)Nc3ccc(F)cc3)ccc2O1	47[16.7 µM]	-19
Cc1noc(C)c1NC(=O)N(C)C[C@@H]1Oc2ccc(NC(=O)C3CCCCC3)cc2CC(=O)N([C@@H](C)CO)C[C@H]1C	-9[16.7 µM]	9
C[C@@H]1CCCCO[C@H](CN(C)S(=O)(=O)c2ccccc2)[C@@H](C)CN([C@@H](C)CO)C(=O)c2cc(NC(=O)C3CCCCC3)ccc2O1	-23[16.7 µM]	-5
C[C@@H]1CCCCO[C@@H](CN(C)Cc2ccc(Cl)c(Cl)c2)[C@H](C)CN([C@@H](C)CO)C(=O)c2cc(NS(=O)(=O)c3ccccc3)ccc2O1	25[16.7 µM]	10
C[C@H](CO)N1C[C@H](C)[C@H](CN(C)S(=O)(=O)c2cccs2)Oc2ccc(NC(=O)Nc3ccc(C(F)(F)F)cc3)cc2C1=O	20[16.7 µM]	1
CNC(=O)C[C@H]1CC[C@@H]2[C@@H](COc3ccc(NC(=O)c4ccccc4OC)cc3C(=O)N2C)O1	-31[16.7 µM]	9
COc1ccc(CN(C)C[C@@H]2Oc3ccc(NC(=O)C4CCCCC4)cc3C(=O)N([C@H](C)CO)C[C@@H]2C)cc1	-19[16.7 µM]	17
C[C@@H]1CN([C@@H](C)CO)C(=O)c2cc(NC(=O)c3ccncc3)ccc2O[C@@H](C)CCCCO[C@@H]1CN(C)C(=O)Nc1ccccc1	12[16.7 µM]	-1
Cc1ccc(S(=O)(=O)N(C)C[C@@H]2Oc3ccc(NC(=O)NC(C)C)cc3C(=O)N([C@H](C)CO)C[C@@H]2C)cc1	6[16.7 µM]	0
CC(C)c1cn(CC[C@H]2CC[C@H](NC(=O)C3CCC3)[C@@H](CO)O2)nn1	9[16.7 µM]	8
C[C@H]1CN([C@@H](C)CO)C(=O)Cc2cc(NS(=O)(=O)c3cn(C)cn3)ccc2O[C@H]1CN(C)Cc1ccc(C(=O)O)cc1	13[16.7 µM]	-19
CC(C)NC(=O)N(C)C[C@H]1Oc2cc(-c3ccccc3F)ccc2S(=O)(=O)N([C@@H](C)CO)C[C@H]1C	48[16.7 µM]	2
CO[C@@H]1CN(C)C(=O)c2cc(NS(=O)(=O)c3ccccc3C)ccc2OC[C@@H](C)N(S(C)(=O)=O)C[C@H]1C	-32[16.7 µM]	0
C[C@@H]1CN([C@@H](C)CO)C(=O)c2cc(NC(=O)NC3CCCCC3)ccc2O[C@@H](C)CCCCO[C@H]1CN(C)S(=O)(=O)c1ccc(F)cc1	2[16.7 µM]	-3
C[C@@H]1CN([C@H](C)CO)S(=O)(=O)c2ccc(-c3ccc(F)cc3)cc2O[C@H]1CN(C)C(=O)C1CCOCC1	-5[16.7 µM]	5
O=C(Nc1ccc(F)cc1)N[C@@H]1CC[C@H](CCn2cc(C3(O)CCCC3)nn2)O[C@H]1CO	-6[16.7 µM]	-8
O=S(=O)(NCC[C@H]1CC[C@@H](NS(=O)(=O)c2ccccc2Cl)[C@@H](CO)O1)c1ccc(Cl)cc1	9[16.7 µM]	-11

C[C@@H]1CN([C@H](C)CO)S(=O)(=O)c2ccc(C3=CCCC3)cc2O[C@H]1CN(C)C(=O)CC1CC1
  Env fusion inh: -17[16.7 µM]
  UUG fidelity: 8
CNC[C@@H]1OCCCC[C@@H](C)Oc2ccc(NS(=O)(=O)c3ccc(OC)cc3)cc2C(=O)N([C@H](C)CO)C[C@H]1C
  Env fusion inh: -17[16.7 µM]
  UUG fidelity: -2
Cc1ccc(S(=O)(=O)Nc2ccc3c(c2)C(=O)N([C@H](C)CO)C[C@@H](C)[C@H](CN(C)C(=O)Nc2ccc(F)cc2)OCCCC[C@@H](C)O3)cc1
  Env fusion inh: -30[16.7 µM]
  UUG fidelity: -4
Cc1noc(C)c1NC(=O)Nc1ccc2c(c1)C(=O)N([C@H](C)CO)C[C@H](C)[C@H](CN(C)S(=O)(=O)c1ccc(F)cc1)O2
  Env fusion inh: -30[16.7 µM]
  UUG fidelity: 2
C[C@@H]1CN([C@H](C)CO)C(=O)c2cc(NC(=O)Nc3ccc(C(F)(F)F)cc3)ccc2O[C@@H](C)CCCCO[C@H]1CN(C)S(C)(=O)=O
  Env fusion inh: 19[16.7 µM]
  UUG fidelity: 1
C[C@@H]1CCCCO[C@@H](CN(C)S(=O)(=O)c2ccc(F)cc2)[C@@H](C)CN([C@@H](C)CO)C(=O)c2cc(NC(=O)C3CCCCC3)ccc2O1
  Env fusion inh: 9[16.7 µM]
  UUG fidelity: -1
CNC(=O)C[C@@H]1CC[C@H]2[C@@H](COC[C@H](O)CN2Cc2ccc(Cl)c(Cl)c2)O1
  Env fusion inh: 14[16.7 µM]
  UUG fidelity: -8
C[C@H](CO)N1C[C@H](C)[C@@H](CN(C)Cc2ccc(C(=O)O)cc2)Oc2ccc(NC(=O)Nc3ccc4c(c3)OCO4)cc2CC1=O
  Env fusion inh: -10[16.7 µM]
  UUG fidelity: 1
C[C@H](CO)N1C[C@H](C)[C@@H](CN(C)S(=O)(=O)c2ccc(F)cc2)Oc2ccc(NS(=O)(=O)c3ccccc3)cc2CC1=O
  Env fusion inh: 32[16.7 µM]
  UUG fidelity: -7
Cc1noc(C)c1S(=O)(=O)Nc1ccc2c(c1)C(=O)N([C@@H](C)CO)C[C@@H](C)[C@@H](CN(C)S(=O)(=O)c1ccc(F)cc1)OCCCC[C@@H](C)O2
  Env fusion inh: -2[16.7 µM]
  UUG fidelity: -11
O=C(C[C@H]1C=C[C@H](NC(=O)C2CC2)[C@@H](CO)O1)NCc1ccncc1
  Env fusion inh: 1[16.7 µM]
  UUG fidelity: 1
C[C@H]1CN([C@@H](C)CO)C(=O)Cc2cc(NC(=O)Nc3cccc4ccccc34)ccc2O[C@@H]1CN(C)S(=O)(=O)c1cn(C)cn1
  Env fusion inh: -11[16.7 µM]
  UUG fidelity: -5
CC(C)NC(=O)N(C)C[C@H]1Oc2cc(C#CC3CC3)ccc2S(=O)(=O)N([C@H](C)CO)C[C@H]1C
  Env fusion inh: -7[16.7 µM]
  UUG fidelity: 7
CC(C)NC(=O)N(C)C[C@H]1Oc2c(NC(=O)C3CCOCC3)cccc2C(=O)N([C@@H](C)CO)C[C@H]1C
  Env fusion inh: -8[16.7 µM]
  UUG fidelity: -7
COc1ccccc1CNC(=O)C[C@@H]1C=C[C@H](NC(C)=O)[C@H](CO)O1
  Env fusion inh: 1[16.7 µM]
  UUG fidelity: -3
C[C@H](CO)N1C[C@H](C)[C@@H](CN(C)Cc2ccc(C(=O)Nc3ccccc3N)cc2)Oc2c(NS(C)(=O)=O)cccc2C1=O
  Env fusion inh: -120[16.7 µM]
  UUG fidelity: -3
CO[C@@H]1CN(C)C(=O)c2cc(NC(=O)C3CCCCC3)ccc2OC[C@H](C)NC[C@H]1C
  Env fusion inh: -7[16.7 µM]
  UUG fidelity: -1
C[C@@H]1CN([C@H](C)CO)C(=O)Cc2cc(NS(=O)(=O)c3cccs3)ccc2O[C@H]1CN(C)Cc1ccc(-c2ccccc2)cc1
  Env fusion inh: -14[16.7 µM]
  UUG fidelity: 9

Quoted at random: two compounds from above, in no set order.
C[C@@H]1CCCCO[C@@H](CN(C)S(=O)(=O)c2ccc(F)cc2)[C@@H](C)CN([C@@H](C)CO)C(=O)c2cc(NC(=O)C3CCCCC3)ccc2O1
  Env fusion inh: 9[16.7 µM]
  UUG fidelity: -1
O=S(=O)(N[C@@H]1CC[C@H](CCn2cc(-c3cccc(F)c3)nn2)O[C@H]1CO)c1ccc(Cl)cc1
  Env fusion inh: 23[16.7 µM]
  UUG fidelity: -4
